High-throughput results: PubChem, several laboratories
MT1-MMP act inh: blocks activation of human MT1-MMP | GFP/RFP ratio change, % at 20 µM | HT1080 RFP-PRO-GFP cells, GFP/RFP ratio fluorescence, overnight; percent of plate control window, DMSO zero | AID 651647 | actives 0.061% (n = 360,000);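 active = GFP/RFP ratio change of at least 30% with cell ATP level not reduced by more than half and red fluorescence within 50% of control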; note: strong numbers were not always called active
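Test system: HT1080 RFP-PRO-GFP cells; Benchmarks: DMSO and RFP-L50D-GFP cell wells; Timing: cells overnight before dosing, compound overnight, 37 °C, 5% CO2; Compound: one 20 µM compound dose with 1% DMSO; Read-out: GFP/RFP fluorescence ratio.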
eIF4H FP inh: inhibitors of RNA binding by human eIF4H; AID 2012; eIF4H fluorescence polarization binding assay; inhibition, % at 35 µM; Q15056; actives 0.94% (n = 290,000);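 active = 50% or more with normal probe brightness, or confirmed in later tests; inconclusive = above 50% with abnormal brightness, or retests that disagree; inactive = below 50% or failed in later tests; about a fifth of its hits are not listed in these tables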;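 note: calls also rest on retests at 20 µM and on dose response follow-up; 0% = protein and probe with vehicle and 100% = probe without protein; strong numbers were not always called active; many hits fall short of the cut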
CSC inhib: blocks cancer stem cells; cancer stem cell-like cells viability, luminescence; inhibition, % at 7.5 µM; actives 1.1% (n = 300,000); AID 2717;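 active = mean at 75% or more and at least half the replicates too; inconclusive = mean and replicates disagree; tested in HMLE shEcad cells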;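 note: 0% = median of negative and 100% = median of positive control wells; the first replicate is given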
Rce1 inh: blocks yeast Ras-converting enzyme. Q03530. yeast membranes, quenched prenylated peptide cleavage fluorescence. calls only. actives 0.27% (n = 290,000). AID 2563;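 active = fall in fluorescence gain of 50% or more versus controls, with final raw signal at or below 3038400; inconclusive = same 50% fall but final raw signal above 3038400; inactive = fall in fluorescence gain under 50%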;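 note: plate controls were neutral control wells for no effect and wells lacking membranes for full effect; tested at 10 µM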
Target sequence (Q03530 whole entry, looked up): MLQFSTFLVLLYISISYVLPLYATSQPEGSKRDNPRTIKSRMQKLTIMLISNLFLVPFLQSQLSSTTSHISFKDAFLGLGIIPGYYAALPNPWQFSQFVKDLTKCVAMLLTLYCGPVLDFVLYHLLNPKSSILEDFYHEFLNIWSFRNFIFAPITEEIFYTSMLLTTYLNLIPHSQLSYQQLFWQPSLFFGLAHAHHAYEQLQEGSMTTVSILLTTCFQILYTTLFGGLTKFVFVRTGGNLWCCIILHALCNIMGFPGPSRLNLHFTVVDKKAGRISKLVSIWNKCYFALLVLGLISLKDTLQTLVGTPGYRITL
Yeast UUG start: yeast start codon fidelity modulation; activity score, % at 18.7 µM; actives 0.13% (n = 350,000); S. cerevisiae UUG-firefly luciferase reporter, luminescence/redox ratio; AID 602363;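 active = replicate mean at a twofold rise or more, about +100% in these data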;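 note: firefly luciferase made from a UUG start codon reports start codon fidelity; reporter light over untreated wells divided by growth signal over untreated wells; some hits fall short of that in this replicate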
PABP polyA inh: blocks human PABP binding to poly(A) RNA. P11940. fluorescence polarization. inhibition, % at 35 µM. actives 1% (n = 290,000);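 active = 50% or more with normal probe brightness, or confirmed in later tests; inconclusive = above 50% with abnormal brightness, or retests that disagree; inactive = below 50% or failed in later tests; about a fifth of its hits are not listed in these tables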;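 note: calls also rest on retests at 20 µM and on dose response follow-up; controls were probe without protein and protein plus probe with vehicle; some compounds called inactive have numbers as strong as hits; many hits fall short of the cut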
Target sequence (P11940 whole entry, looked up): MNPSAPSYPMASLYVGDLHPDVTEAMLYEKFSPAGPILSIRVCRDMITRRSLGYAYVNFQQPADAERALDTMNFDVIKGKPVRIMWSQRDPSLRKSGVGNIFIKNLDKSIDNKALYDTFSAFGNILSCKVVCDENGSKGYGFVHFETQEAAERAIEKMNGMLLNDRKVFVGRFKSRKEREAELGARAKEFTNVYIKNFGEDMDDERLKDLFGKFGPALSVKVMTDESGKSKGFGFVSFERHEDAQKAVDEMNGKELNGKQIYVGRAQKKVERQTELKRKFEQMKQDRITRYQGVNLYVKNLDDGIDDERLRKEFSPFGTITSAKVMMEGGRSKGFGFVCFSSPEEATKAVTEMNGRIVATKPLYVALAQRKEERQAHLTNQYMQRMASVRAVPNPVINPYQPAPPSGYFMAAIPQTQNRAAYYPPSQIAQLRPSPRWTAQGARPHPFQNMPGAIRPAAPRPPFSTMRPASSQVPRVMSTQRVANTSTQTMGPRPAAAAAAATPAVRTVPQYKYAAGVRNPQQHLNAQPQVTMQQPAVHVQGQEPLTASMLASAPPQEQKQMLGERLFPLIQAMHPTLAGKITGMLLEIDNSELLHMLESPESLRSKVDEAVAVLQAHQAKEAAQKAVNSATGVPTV
Env fusion inh: HIV envelope-mediated fusion inhibition. AID 651610. actives 1.1% (n = 360,000). HeLa-JRFL Env/CEM21 cell fusion, luciferase. inhibition, % at 12.3 µM;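 active = mean replicate inhibition score of at least 50 and every replicate individually at or above 50; inconclusive = only one of the two criteria met; inactive = mean below 50 and not all replicates reaching 50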;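 note: 0% = plate neutral controls and 100% = maraviroc near 300 nM; one replicate is shown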
MT1-MMP act inh RFP: recorded beside MT1-MMP act inh, whose call it bears; RFP signal change, %; measured here: RFP expression control read;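 0 = vehicle wells; hits needed this value within 50% of zero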
The depositor's hits bear a star. An excerpt, so the mix of outcomes need not match the whole.

`Cc1cccc(C(=O)Nc2scc(CC(C)C)c2C(=O)O)c1` gave MT1-MMP act inh 0, eIF4H FP inh -3, CSC inhib 20, Rce1 inh inactive, Yeast UUG start -12, PABP polyA inh 0, Env fusion inh -25 and MT1-MMP act inh RFP 6.
Screening Cc1c(NC(=O)c2cc(-c3ccc(Cl)c(Cl)c3)on2)c(=O)n(-c2ccccc2)n1C returned MT1-MMP act inh -3, eIF4H FP inh -4, CSC inhib -14, Rce1 inh inactive, Yeast UUG start -26, PABP polyA inh 4, Env fusion inh -21 and MT1-MMP act inh RFP -2.
For Cc1nn(CC(=O)NCc2ccccc2Cl)c(C)c1[N+](=O)[O-] the results were MT1-MMP act inh -1, eIF4H FP inh 0, CSC inhib 2, Yeast UUG start -10, PABP polyA inh 3, Env fusion inh 14 and MT1-MMP act inh RFP -1.
For O=C(C1CCCO1)N1CCN(S(=O)(=O)c2cc(C(F)(F)F)ccc2Cl)CC1 (configuration not stated) the results were MT1-MMP act inh -1, Yeast UUG start 0, Env fusion inh 12 and MT1-MMP act inh RFP 3.
For Cc1cc(F)ccc1NCC(=O)Nc1ccc(Br)cc1C the results were MT1-MMP act inh 4, eIF4H FP inh -2, CSC inhib 5, Rce1 inh inactive, Yeast UUG start -1, PABP polyA inh 6, Env fusion inh -3 and MT1-MMP act inh RFP 0.
For COc1ccccc1N1CCN(C(=O)COc2ccc(S(=O)(=O)NC(C)C)cc2)CC1 the results were MT1-MMP act inh 3, eIF4H FP inh -14, CSC inhib -1, Rce1 inh inactive, Yeast UUG start -15, PABP polyA inh -2, Env fusion inh -3 and MT1-MMP act inh RFP 3.
`Cc1c(NC(=O)C(C)Oc2cccc(F)c2)c(=O)n(-c2ccccc2)n1C` (configuration not stated) gave MT1-MMP act inh 5, CSC inhib 10, Yeast UUG start -16 and MT1-MMP act inh RFP -3.
COC(=O)N1C(=O)[C@](CC(C)C)(c2ccccc2)N1C(=O)OC was read as MT1-MMP act inh -2, eIF4H FP inh -6, CSC inhib 7, Rce1 inh inactive, Yeast UUG start -3, PABP polyA inh -5, Env fusion inh 10 and MT1-MMP act inh RFP 1.
`COc1ccc(OC)c2sc(N3CCN(C(=O)c4ccc5ncsc5c4)CC3)nc12` gave MT1-MMP act inh 0, CSC inhib 16, Rce1 inh inactive, Yeast UUG start -9, Env fusion inh 0 and MT1-MMP act inh RFP -5.
O=S(=O)(NCCCCNS(=O)(=O)c1c(F)cccc1F)c1ccc2c(c1)OCCO2 was read as MT1-MMP act inh 1, CSC inhib 4, Yeast UUG start -16, Env fusion inh 7 and MT1-MMP act inh RFP 1.
`Cc1ccc(N2C(=O)N(CC(=O)Nc3ccccc3C)C(=O)C2C)cc1` (configuration not stated) gave MT1-MMP act inh 5, eIF4H FP inh -8, Rce1 inh inactive, Yeast UUG start 5, PABP polyA inh -1, Env fusion inh 4 and MT1-MMP act inh RFP 4.
For COc1ccc(OC)c2c(N3CCN(C)CC3)cc(C(F)(F)F)nc12 the results were MT1-MMP act inh 1, eIF4H FP inh -1, CSC inhib -9, Rce1 inh inactive, Yeast UUG start -7, PABP polyA inh 1 and MT1-MMP act inh RFP 2.
`O=C(c1ccc(CS(=O)c2ccc(Br)cc2)o1)N1CCN(C2CCCCC2)CC1` (configuration not stated) gave MT1-MMP act inh -3, Yeast UUG start -12, Env fusion inh -6 and MT1-MMP act inh RFP -8.
For CS(=O)(=O)c1nc([N+](=O)[O-])nn1CCCc1ccccc1 the results were MT1-MMP act inh -3, CSC inhib 54, Rce1 inh inactive and MT1-MMP act inh RFP 2.
Screening N#CCSc1nc(-c2ccccc2)cs1 returned MT1-MMP act inh -2, eIF4H FP inh -2, CSC inhib -12, Rce1 inh inactive, Yeast UUG start -22, PABP polyA inh 6 and MT1-MMP act inh RFP 3.
Cc1ccc(C)c(NS(=O)(=O)c2ccc3oc(=O)ccc3c2)c1 was read as MT1-MMP act inh 0, eIF4H FP inh 4, CSC inhib -40, Rce1 inh inactive, Yeast UUG start -9, PABP polyA inh -2, Env fusion inh 5 and MT1-MMP act inh RFP -5.
For C(=N\N(c1ccccc1)c1ccccc1)/c1ccc2c(c1)OCO2 the results were MT1-MMP act inh -7, eIF4H FP inh -5, CSC inhib 44, Rce1 inh inactive, PABP polyA inh 7, Env fusion inh 16 and MT1-MMP act inh RFP -7.
`O=C(N/N=C\c1ccc([N+](=O)[O-])s1)c1cncc(Br)c1` gave MT1-MMP act inh -10, eIF4H FP inh 29, CSC inhib 63, Rce1 inh inactive, Yeast UUG start -17, PABP polyA inh -5, Env fusion inh 104* and MT1-MMP act inh RFP -10.
Screening O=C(CCCN1C(=O)/C(=C\c2cccs2)SC1=S)Nc1ccc(C(=O)O)cc1 returned MT1-MMP act inh 1, eIF4H FP inh 14, CSC inhib 1, Rce1 inh inactive, Yeast UUG start -14, PABP polyA inh 18, Env fusion inh 10 and MT1-MMP act inh RFP 0.
`O=C(CCS(=O)(=O)c1ccc(Cl)cc1)Nc1nc(-c2ccncc2)cs1` gave MT1-MMP act inh -5, eIF4H FP inh -12, CSC inhib 9, Rce1 inh inactive, Yeast UUG start 3, PABP polyA inh 14, Env fusion inh -26 and MT1-MMP act inh RFP -8.
Cc1cc(=O)[nH]c(SCC(=O)N2CC3(C)CC2CC(C)(C)C3)n1 (configuration not stated) was read as MT1-MMP act inh 3, Yeast UUG start 2, Env fusion inh 1 and MT1-MMP act inh RFP 3.
`COc1cccc(/C=N/NC(=S)Nc2cccnc2)c1` gave MT1-MMP act inh -2, eIF4H FP inh -10, CSC inhib 5, Rce1 inh inactive, Yeast UUG start -29, PABP polyA inh inconclusive, Env fusion inh -7 and MT1-MMP act inh RFP 1.
Screening COc1cc(/C=C2/C(=O)NN(c3ccc(Cl)c(Cl)c3)C2=O)cc([N+](=O)[O-])c1O returned MT1-MMP act inh 5, eIF4H FP inh 18, CSC inhib 17, Rce1 inh inactive, Yeast UUG start -4, PABP polyA inh 29, Env fusion inh 6 and MT1-MMP act inh RFP 0.
COc1ccc(C(=O)Nn2c(SCC(=O)NCc3ccco3)nc3ccccc3c2=O)cc1 was read as MT1-MMP act inh 2, eIF4H FP inh 1, CSC inhib -4, Rce1 inh inactive, Yeast UUG start -66, PABP polyA inh 10 and MT1-MMP act inh RFP -1.
For CN1CCN(C(=S)c2ccc(Br)cc2)CC1 the results were MT1-MMP act inh -1, eIF4H FP inh 5, CSC inhib 8, Rce1 inh inactive, PABP polyA inh 0, Env fusion inh 3 and MT1-MMP act inh RFP -1.
For Cc1ccc(NC(=O)CN(C)Cc2cc(=O)n3ccsc3n2)cc1 the results were MT1-MMP act inh -5, eIF4H FP inh -5, CSC inhib -25, Rce1 inh inactive, PABP polyA inh 10, Env fusion inh -1 and MT1-MMP act inh RFP -1.
Screening Cc1cc(=O)[nH]c(SCC(=O)NCCC2=CCCCC2)n1 returned MT1-MMP act inh -2, eIF4H FP inh 6, CSC inhib -6, Rce1 inh inactive, Yeast UUG start -12, PABP polyA inh -15, Env fusion inh 4 and MT1-MMP act inh RFP -1.
For O=C(c1cccc(F)c1)N1CCCC(C(=O)N2CCCC2)C1 (configuration not stated) the results were MT1-MMP act inh 4, eIF4H FP inh -3, CSC inhib -7, Rce1 inh inactive, Yeast UUG start -20, PABP polyA inh -4, Env fusion inh -28 and MT1-MMP act inh RFP 0.
CC(C)OCCCNC(=O)C1CCN(S(=O)(=O)c2ccc3nc4c(c(C(=O)O)c3c2)CCCCC4)CC1 was read as MT1-MMP act inh 0, eIF4H FP inh -14, CSC inhib -10, Rce1 inh inactive, Yeast UUG start -19, PABP polyA inh 8, Env fusion inh -3 and MT1-MMP act inh RFP 1.
Screening CCc1nnc(NC(=O)C2CCCN(c3nc4ccccc4s3)C2)s1 (configuration not stated) returned MT1-MMP act inh 4, eIF4H FP inh -2, Rce1 inh inactive, Yeast UUG start -4, PABP polyA inh -4, Env fusion inh 12 and MT1-MMP act inh RFP -2.
CC(C)c1ccc(OCC(O)CN2CCCC2)cc1 (configuration not stated) was read as MT1-MMP act inh 1, eIF4H FP inh -8, CSC inhib -11, Rce1 inh inactive, Yeast UUG start 5, PABP polyA inh 0, Env fusion inh -27 and MT1-MMP act inh RFP -1.
Cc1ccn2c(C(=O)CSc3ccccc3)c(C)nc2c1 was read as MT1-MMP act inh -1, eIF4H FP inh 6, CSC inhib -3, Rce1 inh inactive, PABP polyA inh 11, Env fusion inh 20 and MT1-MMP act inh RFP -6.
Screening CCC(=O)Nc1cccc(NC(=O)c2ccccc2Br)c1 returned MT1-MMP act inh -1, eIF4H FP inh -4, CSC inhib 0, Rce1 inh inactive, PABP polyA inh -3, Env fusion inh 10 and MT1-MMP act inh RFP -4.
For COc1cc(/C=N/NC(=O)c2c(-c3c(Cl)cccc3Cl)noc2C)ccc1OCC(N)=O the results were MT1-MMP act inh 5, eIF4H FP inh 2, Rce1 inh inactive, Yeast UUG start -7, PABP polyA inh 6, Env fusion inh -14 and MT1-MMP act inh RFP 4.
Screening C=CCNc1nc2ccccc2nc1NS(=O)(=O)c1ccc(F)cc1 returned MT1-MMP act inh 1, eIF4H FP inh -4, CSC inhib -2, Rce1 inh inactive, Yeast UUG start 4, PABP polyA inh -11, Env fusion inh 15 and MT1-MMP act inh RFP 2.
For Cc1ccc(C2=NS(=O)(=O)N(C)C(C(=O)Nc3ccc(F)cc3F)=C2)cc1 the results were MT1-MMP act inh -1, eIF4H FP inh -13, CSC inhib 12, Rce1 inh inactive, Yeast UUG start -9, PABP polyA inh -7 and MT1-MMP act inh RFP -5.
Screening COC(=O)c1sc(N)c(C(=O)OC)c1Cn1ncc(Cl)c(Cl)c1=O returned MT1-MMP act inh -1, eIF4H FP inh 2, CSC inhib 12, Rce1 inh inactive, Yeast UUG start -24, PABP polyA inh -1, Env fusion inh 2 and MT1-MMP act inh RFP -2.
For COCCSc1ccccc1C(=O)Nc1cccnc1 the results were MT1-MMP act inh -2, eIF4H FP inh -4, CSC inhib 1, Rce1 inh inactive, Yeast UUG start -15, PABP polyA inh 20, Env fusion inh -11 and MT1-MMP act inh RFP -1.
Screening COc1ccccc1N1CCN(CCCNC(=O)Nc2ccccc2C)CC1 returned MT1-MMP act inh -2, eIF4H FP inh -9, CSC inhib -1, Rce1 inh inactive, Yeast UUG start -14, PABP polyA inh 0 and MT1-MMP act inh RFP 3.
`O=C(Nc1ccc(Cl)cc1)c1ccc2snnc2c1` gave MT1-MMP act inh -3, eIF4H FP inh -3, CSC inhib 1, Rce1 inh inactive, Yeast UUG start -11, PABP polyA inh -11, Env fusion inh -88 and MT1-MMP act inh RFP -7.
`COc1ccc(-n2c(O)c(/C=N/NS(=O)(=O)c3ccc(C)cc3)c3ccccc3c2=O)cc1OC` gave MT1-MMP act inh -116, eIF4H FP inh inconclusive, CSC inhib 12, Rce1 inh inactive, PABP polyA inh 1, Env fusion inh 29 and MT1-MMP act inh RFP 22.
Screening O=C(NCc1ccncc1)C(F)(F)C(F)(F)C(=O)NCc1ccncc1 returned MT1-MMP act inh 3, eIF4H FP inh 7, CSC inhib -3, Rce1 inh inactive, Yeast UUG start -25, PABP polyA inh 0 and MT1-MMP act inh RFP 4.
Screening O=C(Nc1ccccc1N1CCOCC1)c1cc(F)cc(F)c1 returned MT1-MMP act inh 0, eIF4H FP inh -4, CSC inhib -2, Rce1 inh inactive, Yeast UUG start -12, PABP polyA inh 0, Env fusion inh -5 and MT1-MMP act inh RFP 3.
O=C(O)c1cccnc1SCC(=O)N1CCCCCC1 was read as MT1-MMP act inh -3, eIF4H FP inh -4, CSC inhib -3, Rce1 inh inactive, Yeast UUG start 1, PABP polyA inh 4, Env fusion inh -24 and MT1-MMP act inh RFP -1.
